KCNQ2 pot – KCNQ2 (rat) channel potentiation. O88943. CHO-K1 KCNQ2, FluxOR thallium flux fluorescence; stronger effect = higher value. B-score at 10 µM. hit rate 0.54% among 310,000;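 active = fluorescence ratio B-score at least 3 SD of library B-scores, with initial fluorescence B-score within 3 SD, cut at about 5.3 in these data; same plate scores as AID 2156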;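 also: B-score of peak minus minimum over baseline fluorescence ratio after K+ and Tl+ stimulus; positive B-score means potentiation of KCNQ2 with more thallium influx and brighter signal; only the inactives scoring about 0 or higher are listed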
Target sequence (O88943 whole entry, looked up): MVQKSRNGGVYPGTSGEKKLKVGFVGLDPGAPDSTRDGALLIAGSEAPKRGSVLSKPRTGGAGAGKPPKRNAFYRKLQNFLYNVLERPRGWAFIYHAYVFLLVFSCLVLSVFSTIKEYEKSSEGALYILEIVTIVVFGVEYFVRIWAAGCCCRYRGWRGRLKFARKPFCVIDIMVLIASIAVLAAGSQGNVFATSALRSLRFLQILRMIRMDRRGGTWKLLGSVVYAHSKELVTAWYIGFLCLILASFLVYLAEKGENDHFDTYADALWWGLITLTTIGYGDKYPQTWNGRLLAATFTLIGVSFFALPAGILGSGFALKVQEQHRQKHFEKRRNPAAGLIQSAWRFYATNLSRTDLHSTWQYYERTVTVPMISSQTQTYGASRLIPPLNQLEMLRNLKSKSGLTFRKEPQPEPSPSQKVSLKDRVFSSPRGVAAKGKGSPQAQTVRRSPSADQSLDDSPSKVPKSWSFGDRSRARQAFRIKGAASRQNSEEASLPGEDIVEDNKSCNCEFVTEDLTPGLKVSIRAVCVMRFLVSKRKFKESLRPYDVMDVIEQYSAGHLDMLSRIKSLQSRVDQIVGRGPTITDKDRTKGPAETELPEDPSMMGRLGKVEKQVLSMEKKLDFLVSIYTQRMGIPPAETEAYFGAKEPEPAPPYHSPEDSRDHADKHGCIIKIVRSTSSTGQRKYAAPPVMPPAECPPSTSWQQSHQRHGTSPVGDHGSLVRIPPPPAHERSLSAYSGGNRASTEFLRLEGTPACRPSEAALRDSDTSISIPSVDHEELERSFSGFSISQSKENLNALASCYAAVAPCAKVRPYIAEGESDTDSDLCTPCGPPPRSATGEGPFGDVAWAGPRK
KCNQ2 pot baseline – further read-out of KCNQ2 pot, marked with its call; B-score; compound at 10 µM; measured here: initial fluorescence intensity artifact check;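 brightness before thallium and not channel activity; 0 = typical well and far values either way flag optical interference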
* marks the source's active call; other numbers are inactive results; / = not tested or not shown. A portion of the library, so the mix of outcomes need not match the whole.

SMILES | KCNQ2 pot | KCNQ2 pot baseline
CSc1nc2nccc(-c3ccc4c(c3)OCO4)n2n1 | 1 | -0.25
O=C(/C=C/c1ccc(Cl)cc1Cl)N1CCN(c2ccc([N+](=O)[O-])c(N3CCOCC3)c2)CC1 | 0.95 | 0.82
CCOc1ccc(C2C3=C(CCCC3=O)Nc3nc(C(F)(F)F)nn32)cc1OC (stereo unspecified) | 0.27 | -0.18
COc1cc2cc(C(=O)N/N=C/c3ccc(F)cc3)[nH]c2cc1OC | 1.7 | -1.3
N#Cc1ccsc1NC(=O)CCS(=O)(=O)c1ccccc1 | 0.06 | 0.76
CCc1ccc(-n2c(Cc3ccccc3)n[nH]c2=S)cc1 | 0.5 | -1.2
COC(=O)Cn1c(=NC(=O)c2nc3ccccc3s2)sc2cc(S(C)(=O)=O)ccc21 | 2.4 | -2
OCCN1CCN(C(=S)c2ccc(Cl)cc2)CC1 | 1.5 | -0.85
O=C1S/C(=C\c2cccs2)C(=O)N1c1ccc(O)cc1 | 0.9 | -0.73
CCC(=O)N1CCCc2cc(S(=O)(=O)N3CCN(c4ccccn4)CC3)ccc21 | 0.07 | -0.01
CC1CCCCN1Cc1ccc(N)cc1 (stereo unspecified) | 0.32 | -0.58
COCCNC(=O)c1ccc(N(C)S(=O)(=O)c2ccc(OC)c(OC)c2)cc1 | 0.26 | -0.52
CCn1ncc(Br)c1C(=O)Nc1ccc(OC(F)(F)F)cc1 | 0.47 | -3.2
Cc1c(NC(=S)NC(=O)COc2ccccc2)c(=O)n(-c2ccccc2)n1C | 1.1 | -1.1
COc1ccccc1C(CNC(=O)C(C)Oc1ccc(Br)cc1)N1CCCC1 (stereo unspecified) | 0.14 | -0.07
CN1C(C(=O)Nc2ccccn2)=C(O)c2sccc2S1(=O)=O | 1.1 | -3
O=C(Cc1cccs1)N1CCCC(c2nc(-c3ccc(S(=O)(=O)N4CCCC4)cc3)no2)C1 (stereo unspecified) | 0.52 | -1.6
CN(CC(=O)Nc1cccc(F)c1)C(=O)C1CC(=O)N(CCc2ccccc2)C1 (stereo unspecified) | 0.5 | -1.6
Clc1ccc2nsnc2c1NC1=NCCN1 | 0.44 | 2.7
O=C1OCCC1Sc1nnc(-c2ccc3c(c2)OCO3)n1-c1ccccc1 (stereo unspecified) | 0.16 | -0.35
CCOc1ccc(N(CC(=O)NCCCOC)S(C)(=O)=O)cc1 | 2.6 | -1.2
Cn1c(=O)[nH]c(=O)c2c1nc(CN1CCN(c3ccc(F)cc3)CC1)n2CCCc1ccccc1 | 0.03 | -2
O=c1oc2ccccc2c(Nc2ccc3ncccc3c2)c1[N+](=O)[O-] | 0.6 | 0
CCN(CC)c1ncc(C#N)c(N)n1 | 1.2 | -0.2
O=C(CCc1ccccc1)NNC(=O)c1cccc(F)c1 | 3.1 | 0.46

Arranged by number of heavy atoms (rising): part of the list above.
SMILES | KCNQ2 pot | KCNQ2 pot baseline
CCc1ccc(-n2c(Cc3ccccc3)n[nH]c2=S)cc1 | 0.5 | -1.2
CN1C(C(=O)Nc2ccccn2)=C(O)c2sccc2S1(=O)=O | 1.1 | -3
CCOc1ccc(C2C3=C(CCCC3=O)Nc3nc(C(F)(F)F)nn32)cc1OC (stereo unspecified) | 0.27 | -0.18
O=C(Cc1cccs1)N1CCCC(c2nc(-c3ccc(S(=O)(=O)N4CCCC4)cc3)no2)C1 (stereo unspecified) | 0.52 | -1.6

Remaining list, next part.
SMILES | KCNQ2 pot | KCNQ2 pot baseline
CC(CC1C(C#N)=C(N)SC(N)=C1C#N)c1ccccc1 (stereo unspecified) | 0.45 | -0.55
O=C(NC1CCCN(Cc2ccccc2F)C1)c1cccc(N2CCCC2=O)c1 (stereo unspecified) | 1.2 | 1.4
O=C(COc1ccccc1)NC1=NCCS1 | 0.84 | 0.14
O=C(Cc1ccccc1F)Nc1ccc(S(=O)(=O)N2CCCCC2)cc1 | 1.6 | 0.1
CC1CC(C)(C)N(C(=O)NC2CCCCC2)c2ccccc21 (stereo unspecified) | 0.19 | 0
CCOc1cc(/C=C2/NC(=O)NC2=O)cc([N+](=O)[O-])c1O | 0.1 | -1.2
Cc1cc(C)nc(NS(=O)(=O)c2cccs2)c1 | 0.04 | 0.82
COc1cc(/C=N/n2cc(-c3ccccc3)[nH]c2=S)cc(OC)c1O | 1.4 | 0.2
CCC(C)[C@H](NC(=O)C1CCN(C(=O)[C@H](Cc2ccccc2)NS(=O)(=O)c2ccc(C)cc2)CC1)C(=O)O (stereo partly specified) | 0.2 | -0.94
Cc1cc(=O)oc2ccc(OC(=O)CN3C(=O)c4cccc([N+](=O)[O-])c4C3=O)cc12 | 1.3 | 0.17
O=[N+]([O-])c1ccc(N2CCN(S(=O)(=O)c3ccc4ccccc4c3)CC2)cc1NCc1ccco1 | 0.71 | 1.3
COc1ccc(N2C(=O)[C@@H]3[C@H](C2=O)[C@H](C(=O)c2ccc(OC(C)=O)cc2)N2N=CC=C[C@@H]32)cc1 | 0.01 | 1.4
COc1cc(/C=N/NC(=O)CCC(=O)NCc2ccccc2)cc(OC)c1OC | 2.2 | 0.29
CCOc1cc(C2C3=C(CC(C)(C)CC3=O)N(CCOC)C3=C2C(=O)CC(C)(C)C3)ccc1O | 1.1 | -1.1
COC(=O)c1cc(S(=O)(=O)NCc2ccccc2Cl)c[nH]1 | 1.3 | 1.2
Cc1nc2ccccn2c1C(=O)N=Nc1c(O)n(CCC(C)C)c2ccccc12 | 0.28 | 0.55
CCOc1cc(N2CCOCC2)c(OCC)cc1NC(=O)c1ccccc1 | 2.4 | -2.2
CCc1ccc(N(CC)C(=O)Cc2c(C(=O)O)n(C)c3ccccc23)cc1 | 0.53 | 1.2
Cc1nn(Cc2ccccc2Cl)c(C)c1NC(=O)c1noc(C(C)C)c1[N+](=O)[O-] | 1.4 | -0.03
O=C(NNC(=O)C12CC3CC(CC(O)(C3)C1)C2)c1csc(N2CCOCC2)n1 | 0.02 | 0.7
Cc1ccc2c(c1)-c1c(cnn1CC(=O)N(CCC#N)c1ccccc1)CO2 | 1.7 | -2.4
O=C(NCCC(=O)N1CCN(c2ccccc2O)CC1)c1ccc(Cl)cc1 | 0.98 | 1.9
CCOC(=O)c1cc(C#N)c(N2CCN(c3ccc(OC)cc3)CC2)[nH]c1=O | 0.29 | -0.49
O=C(c1ccccc1Cl)N1CCCC(c2nc3c(nnn3Cc3ccccc3)c(=O)[nH]2)C1 (stereo unspecified) | 0.01 | 1.2
O=C(CCCOc1ccc(Cl)cc1Cl)NCCc1nnc2ccccn12 | 0.12 | 2.7

Of the compounds above, eight have an aryl methoxy group.
SMILES | KCNQ2 pot | KCNQ2 pot baseline
CCOc1ccc(C2C3=C(CCCC3=O)Nc3nc(C(F)(F)F)nn32)cc1OC (stereo unspecified) | 0.27 | -0.18
COc1cc2cc(C(=O)N/N=C/c3ccc(F)cc3)[nH]c2cc1OC | 1.7 | -1.3
COCCNC(=O)c1ccc(N(C)S(=O)(=O)c2ccc(OC)c(OC)c2)cc1 | 0.26 | -0.52
COc1ccccc1C(CNC(=O)C(C)Oc1ccc(Br)cc1)N1CCCC1 (stereo unspecified) | 0.14 | -0.07
COc1cc(/C=N/n2cc(-c3ccccc3)[nH]c2=S)cc(OC)c1O | 1.4 | 0.2
COc1ccc(N2C(=O)[C@@H]3[C@H](C2=O)[C@H](C(=O)c2ccc(OC(C)=O)cc2)N2N=CC=C[C@@H]32)cc1 | 0.01 | 1.4
COc1cc(/C=N/NC(=O)CCC(=O)NCc2ccccc2)cc(OC)c1OC | 2.2 | 0.29
CCOC(=O)c1cc(C#N)c(N2CCN(c3ccc(OC)cc3)CC2)[nH]c1=O | 0.29 | -0.49

More results:
SMILES | KCNQ2 pot | KCNQ2 pot baseline
CCN(CC)/C(=N/S(=O)(=O)c1ccc(C)cc1)c1ccccc1 | 0.02 | -0.32
CC(C)=CCN1CCN(Cc2cc(CC(C)C)n[nH]2)CC1CCO (stereo unspecified) | 0.48 | -0.37
CCOC(=O)c1c(S(=O)(=O)N2CCCCCC2)c(C)n(C)c1C | 0.85 | -0.38
C#CCOCCOCCOCCNc1nc(N2CCN(C(=O)[C@H](Cc3cc4ccccc4[nH]3)n3cc(C(N)CC(C)C)nn3)CC2)nc(N2CCN(C(=O)[C@H](CCC(=O)O)n3cc(C(N)[C@H](C)CC)nn3)CC2)n1 (stereo partly specified) | 0.33 | 0.34
COc1ccc(C(N)CCc2ccc(C)o2)cc1 (stereo unspecified) | 0.74 | 0.5
O=C(c1ccccc1)c1ccc(OCCO)cc1 | 2.6 | 0.03
CCn1cc(C(=O)NCCCN(CC(C)C)CC(C)C)c(=O)c2cc(S(=O)(=O)N3CCOCC3)ccc21 | 0.18 | -2.2
Cc1c(C(=O)NCCCN2CCCCC2)oc2ccc3c(c12)C(O)CC1(CCCCC1)O3 (stereo unspecified) | 2.8 | 3.2
Cc1c(C(=O)O)oc2c1C(O)CC(C)(C)C2 (stereo unspecified) | 0.43 | /
CCCCS(=O)CC(CS(=O)CCCC)OC(=O)c1ccccc1 (stereo unspecified) | 0.23 | -1.8
CCOC(=O)c1ccccc1NC(=O)COC(=O)CCNS(=O)(=O)c1ccc(C)c(C)c1 | 1.3 | -1.4
CC1CN(S(=O)(=O)c2cn(C)c(=O)n(C)c2=O)CC(C)O1 (stereo unspecified) | 1.2 | -2
COc1ccc2c(c1)c(C(=O)CN1CCN(c3ccccc3)CC1)c(C)n2C | 0.24 | 0.38
O=C(N/C(=C\c1ccccc1)C(=O)N1CCCCC1)c1ccco1 | 0.11 | -2.2
C=CCSc1ncccc1C(=O)NCCc1ccccc1 | 1.3 | -0.1
O=C(O)CCN(CCC(=O)O)c1nnc(SCc2ccccc2)s1 | 0.2 | -0.47
O=C(NCCC1=CCCCC1)c1cccc(S(=O)(=O)N2CCCCC2)c1 | 0.97 | -0.26
CCOc1ccccc1N1C(=O)c2ccc(C(=O)Nc3cccnc3)cc2C1=O | 0.23 | -0.95
CCc1nc2ccccc2c(C(=O)NCc2ccccc2)c1C | 2.6 | 2.6
O=C(Nc1ccnn1C1CCN(C/C=C/c2ccccc2)CC1)c1cccc(F)c1 | 0.63 | 0.08
O=C(NCC1CCCO1)c1ccc(Oc2ccc([N+](=O)[O-])cc2)cc1 (stereo unspecified) | 0.21 | -1
Cc1cccc(NC(=O)CSc2nnc(CNC(=O)c3ccco3)o2)c1 | 0.37 | 0.14
CC(=O)c1c(C)[nH]c(C(=O)OC2CCOC2=O)c1C (stereo unspecified) | 0.85 | -1.5
CCOC(=O)c1cccc(NC(=O)CSc2nnc(-c3ccncc3)n2CCCOC)c1 | 0.22 | 1.7
O=C(NCCc1ccc(F)cc1)c1cc(-c2ccncc2)nc2ccccc12 | 0.37 | 0.16
Next section
SMILES | KCNQ2 pot | KCNQ2 pot baseline
O=C(Oc1ccccc1)c1ccc(COC(=O)c2cnccn2)cc1 | 0.08 | -0.36
Cc1ccc(CNCc2ccc3c(c2)OCO3)c(C)c1 | 1.3 | 0
O=C(N/N=C/c1ccco1)c1ccc(OCc2ccccc2)cc1 | 2.9 | 0.07
Cn1c(N)c(C(=O)COC(=O)Cn2cc(C(F)(F)F)ccc2=O)c(=O)n(C)c1=O | 0.39 | 0.14
CCN(CC)S(=O)(=O)c1cc(NC(=O)C(CC(C)C)NC(N)=O)ccc1C (stereo unspecified) | 0.76 | -0.03
O=C(CCC(=O)Nc1ccccc1)N/N=C/c1ccncc1 | 0.04 | 1.1
CC(=O)c1csc(-c2ccccc2)n1 | 0.6 | -0.1
Cc1ccccc1C1=Nn2c(nnc2-c2ccco2)SC1 | 1.9 | -0.04
CC(C)CCn1c(SCC(N)=O)nc2c1c(=O)n(C)c(=O)n2C | 0.19 | -1.1
Cc1c(NC(C)c2ccccc2O)c(=O)n(-c2ccccc2)n1C (stereo unspecified) | 0.18 | 0.34
Cc1oc2c(CN3CCOCC3)c(O)ccc2c(=O)c1-c1ccc(Cl)cc1 | 1.3 | -0.54
CCc1ccc(C(=O)NC(CC(C)C)C(=O)O)cc1 (stereo unspecified) | 0.56 | -1.2
CC1(C)Cc2nc3n[nH]c(N)c3cc2CO1 | 0.53 | -0.41
O=C(NCc1ccco1)C(c1cccs1)N(Cc1ccccc1)C(=O)Cn1nnc2ccccc21 (stereo unspecified) | 1.4 | 0.6
CCc1cc2c(COC(=O)c3c(C)noc3C)cc(=O)oc2cc1O | 0.79 | -0.9
Cc1cc(Oc2ccc(OCC(N)=O)nn2)nc(Cl)n1 | 0.29 | -0.42
Cc1ccc(S(=O)(=O)CCC(=O)OCC(=O)N(Cc2ccccc2)C(C)C)cc1 | 0.78 | 0.71
CCOc1ncccc1C(=O)Nc1cccc(Cl)c1Cl | 1.2 | 0
CCCc1c(C)[nH]c2nc3ccccc3n2c1=O | 0.01 | 1.6
Cc1ccc([N+](=O)[O-])cc1NC(=O)C(C)Sc1nnc(C)n1CC1CCCO1 (stereo unspecified) | 0.16 | -1.1
O=C(CCC1CCCN(C(=O)c2cccc(F)c2)C1)N1CCN(c2ccccn2)CC1 (stereo unspecified) | 1.6 | -0.07
CC1(C)NC(=O)N(CCOc2cccc(Cl)c2Cl)C1=O | 0.75 | -0.56
NS(=O)(=O)c1cccc(NC(=O)CSc2ncc(C(F)(F)F)cc2Cl)c1 | 0.87 | 0.36
C[C@@H](C(=O)OCC(=O)NCCc1ccc(S(N)(=O)=O)cc1)N1C(=O)C2CCCCC2C1=O (stereo partly specified) | 0.35 | -0.01
COC(=O)c1ccc(NC(=O)c2ccc(OC(C)=O)c(OC)c2)cc1 | 0.89 | 0.27
COc1cc(/C=C/c2[nH]c(=O)[nH]c(=O)c2[N+](=O)[O-])cc(OC)c1O | 0.15 | 0.12
O=C1Nc2c(c(=O)[nH]c(=O)n2Cc2ccccc2)C1(NS(=O)(=O)c1ccccc1)C(F)(F)F (stereo unspecified) | 0.12 | 1.1
COC(=O)/C(=C1/Oc2cc3c(cc2S1)OCO3)C(F)(F)F | 0.73 | 1.5

Screens from PubChem BioAssay.
